Screening data: PubChem, National Center for Advancing Translational Sciences (NCATS)
DT40 TDP1 CPT: DT40-hTDP1 cell growth loss with CPT; actives 12% (n = 420,000); chicken DT40 Tdp1-/-;hTDP1 cells + 20 nM CPT, ATP luminescence, 48 h; Potency, µM (series often up to 46.2 µM), for inactives: top-dose activity change, negative = growth inhibition, most hits filed as inhibitors; further: nearly all actives have a fitted effect of over 55% in size
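Chicken DT40 Tdp1-/- cells complemented with human TDP1, 400 cells/well, exposed to compounds plus 20 nM camptothecin for at least 48 h at 37 C; viability read as ATP content by CellTiter-Glo luminescence.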
DT40 TDP1 no CPT: qHTS for Inhibitors of human tyrosyl-DNA phosphodiesterase 1 (TDP1): qHTS in cells in absence of CPT | DT40 Tdp1-/- hTDP1 cells, no CPT, ATP luminescence, 48 h | Potency, µM (titrated, usually from 46.2 µM), without a hit: at the top dose activity change, negative = growth inhibition, most hits filed as inhibitors | actives 15% (n = 420,000); further: nearly all actives have a fitted effect of over 55% in size
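Seeded 400 DT40-hTDP1 cells/well (vehicle DMSO, no 20 nM CPT); pinned compounds; ≥48 hr at 37 °C; CellTiter-Glo luminescence as viability measure.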
An asterisk follows results filed as active; ? = inconclusive. The call rests on the fitted dose curve; in most records, active means well fitted inhibition curve with a large enough effect; inconclusive means small, poorly fitted or top-dose-only effect; inactive means flat fitted curve, though single readings scatter. On the % scale 0 is the no-effect control and ±100 the full control effect; potency means the concentration at half of the fitted maximal effect.

SMILES | DT40 TDP1 CPT | DT40 TDP1 no CPT
Cn1cccc1/C=N/NC(=O)c1ccc[n+]([O-])c1 | ? | 7%
CCN(c1cccc(C)c1)S(=O)(=O)c1ccc(OC)c([N+](=O)[O-])c1 | -24% | ?
CCCC(CCC(=O)OC)(C(=O)OCC)c1csc(N)n1 (configuration not stated) | -16% | -2%
COc1cc2c(cc1OC)C(c1ccc(Cl)cc1)CC(=O)N2 (configuration not stated) | -10% | -3%
Cc1ccc(NC(=O)CCn2nc(C)cc2C)c(C)c1 | -9% | -4%
O=C(COc1ccccc1)NC(=S)Nc1cccc([N+](=O)[O-])c1 | -8% | ?
O=C(O)c1ccc(COCC(F)(F)F)cc1 | 11% | -5%
Cc1cc(C)n(-c2cc(Cl)cc(Cl)c2)c(=O)c1C#N | 1% | -25%
Cc1ccc(CNc2ncc(-c3ccccc3)n2C)o1 | -26% | ?
Brc1ccc(-c2cn3cccnc3n2)cc1 | -12% | -18%
CSc1nnc(Cn2c(=O)sc3ccccc32)n1C | 6% | 2%
COc1ccc(NS(=O)(=O)c2ccc(OCC(=O)N3CCCC3)cc2)cc1 | -28% | -7%
CCOC(=O)Cc1csc(NC(=O)c2cccs2)n1 | ? | -22%
COc1ccccc1OCC(=O)Nc1ccc(S(=O)(=O)N2CCOCC2)cc1 | 2% | -28%
CN(Cc1ccccc1)c1ccc(S(=O)(=O)N2CCOCC2)cn1 | -9% | -23%
COC(=O)c1ccccc1NC(=O)c1cccc(NC(=O)CSCc2ccccc2)c1C | -4% | -25%
COc1cccc(NC(=S)Nc2cc(C(=O)O)ccc2N2CC3CC(C2)c2cccc(=O)n2C3)c1 (configuration not stated) | 3% | 3%
Cc1cc(Nc2c(C#N)c(N)nn2C)ccc1F | -9% | 23%
CCOC(=O)C1(CC2CCCCO2)CCN(C(=O)Nc2ccccc2CC)CC1 (configuration not stated) | 9% | 4%
N[C@@H](Cc1ccccc1)c1nnc(SCc2ccccc2F)o1 | -16% | -18%
CCOCCCN(C)C1CCN(C(=O)c2oc3ccccc3c2NC(=O)Cc2ccc([N+](=O)[O-])cc2)CC1 | ? | -16%
CCn1c(-c2ccccc2)c(C(=O)CC#N)c2ccccc21 | -28% | ?
CCOc1ncccc1C(=O)OCC(=O)NCc1ccc2c(c1)OCO2 | -1% | 0%
O=C(O)c1ccc(F)c(S(=O)(=O)Nc2ccccc2Cl)c1 | -12% | -1%
CCCCNC(=S)N(CCCO)Cc1cc2cc3c(cc2[nH]c1=O)OCCO3 | -28% | ?

Four entries from above, arranged by length of the SMILES, smallest number first:
SMILES | DT40 TDP1 CPT | DT40 TDP1 no CPT
CCn1c(-c2ccccc2)c(C(=O)CC#N)c2ccccc21 | -28% | ?
COc1cc2c(cc1OC)C(c1ccc(Cl)cc1)CC(=O)N2 (configuration not stated) | -10% | -3%
CN(Cc1ccccc1)c1ccc(S(=O)(=O)N2CCOCC2)cn1 | -9% | -23%
COc1ccccc1OCC(=O)Nc1ccc(S(=O)(=O)N2CCOCC2)cc1 | 2% | -28%

Other entries.
SMILES | DT40 TDP1 CPT | DT40 TDP1 no CPT
COc1ccc(C(=O)COC(=O)Cn2c(C)csc2=O)c(OC)c1 | -1% | -18%
Cc1oncc1-c1csc(-c2ccccc2)n1 | -17% | 1%
COc1ccc2c(c1)C(NC(=O)C(F)(F)F)CC2=O (configuration not stated) | -8% | 1%
CC1CCN(S(=O)(=O)c2ccc(-c3nnc(SCc4cccnc4)o3)cc2)CC1 | ? | -29%
O=[N+]([O-])c1cc(Cl)ccc1-c1nc(-c2ccncc2)no1 | -18% | -18%
CS(=O)(=O)NCCSCc1c(F)cccc1Cl | -1% | 9%
O=C(c1ccc(S(=O)(=O)Nc2ccccc2Cl)cc1)N1CCOCC1 | -19% | -9%
Cc1ccc(C(=O)C(OC(=O)c2cnccn2)c2ccccc2)cc1 (configuration not stated) | -6% | -25%
CCN(CC(=O)Nc1ccc2c(c1)OCCO2)CC(=O)Nc1ccc2c(c1)OCO2 | 15% | 15%
COc1ccccc1NC(=O)c1csc(-n2nc(C)cc2C(F)(F)F)n1 | ? | -13%
Cc1ccc(Cn2cccc(NS(C)(=O)=O)c2=O)cc1 | -19% | 4%
CCOC(=O)C1=C(C)OC(N)=C(C#N)C1c1cc2c(cc1Br)OCO2 (configuration not stated) | -20% | -29%
CC(C)C(=O)N=c1sc2cc(F)cc(F)c2n1C | 7% | 0%
O=CN1Cc2[nH]c3ccccc3c2N(c2ccc(Cl)cc2)C1=O | ? | -9%
CCOc1ccc(/C(O)=C2/C(=O)C(=O)N(CCN(CC)CC)C2c2ccco2)cc1 (configuration not stated) | ? | -4%
CCOc1ccc(NC(=O)CN2CCN(C(=O)c3ccco3)CC2)cc1S(=O)(=O)N1CCCC1 | -10% | -6%
CCN(CC)c1ccc(/C=N/n2c(=S)[nH]nc(C)c2=O)cc1 | -23% | -27%
Cc1cccc(NC(=S)N(CCN(C)C)C(C)c2ccccn2)c1 (configuration not stated) | -25% | -7%
COc1ccc(S(=O)(=O)N(C)CC(=O)Nc2ccc(C(N)=O)cc2)cc1OC | 0% | -2%
Cc1ccc(N2C(=O)CSCC2=O)cc1 | 7% | 6%
CC(C)[C@H](NC(=O)c1ccccc1)C(=O)NC1CCCCCCC1 | -8% | -4%
Cc1cc(NC(=O)CCC(=O)N(c2ccccc2)C(C(=O)NC2CCCC2)c2ccncc2)no1 (configuration not stated) | -2% | -2%
Cn1nnnc1SCc1cccc(CSc2nnnn2C)n1 | 9% | 20%
Cc1ccc(C)c(NC(=O)CN(C)C(=O)C2CCN(S(=O)(=O)c3ccc4c(c3)OCCO4)CC2)c1 | -8% | -5%
COc1cc2[nH]c(C(=O)NCC3CCCO3)cc2c(OC)c1OC (configuration not stated) | -3% | -3%
(continued)
SMILES | DT40 TDP1 CPT | DT40 TDP1 no CPT
CCn1nnnc1SCC(=O)Nc1nc2ccc(OC)cc2s1 | -12% | -4%
Cc1ccc(OCCCC(=O)NC(C)c2ccccc2)cc1 (configuration not stated) | -9% | -13%
COc1ccc(C2C(C(=O)N3CCN(c4ccccn4)CC3)CCC(=O)N2c2cc(OC)c(OC)c(OC)c2)cc1 (configuration not stated) | 1% | 8%
O=C(Cn1ncn2cccc2c1=O)NCc1cccc(Br)c1 | -14% | ?
CC(C)Oc1ccccc1OCCCCn1cnc2ccccc2c1=O | 0% | -18%
O=C(CCC1CCCN(Cc2ccc3c(c2)OCCO3)C1)NCc1ccccc1F (configuration not stated) | 4% | 7%
CS(=O)(=O)N1N=C(c2ccco2)CC1c1ccco1 (configuration not stated) | 1% | 6%
O=C(Cn1cc2c(n1)CCCC2)Nc1ccccc1Br | -12% | -2%
CC1(C)Cc2c(cnn2-c2ccc(F)cc2)C(NC(=O)Cn2cncn2)C1 (configuration not stated) | -6% | 18%
N#CC1(Nc2cccc(Br)c2)C(=O)Nc2ccccc21 (configuration not stated) | -5% | ?
CCCNc1cc(C)oc(=O)c1C(=O)CCC | -6% | -6%
CC1CN(C(=S)Nc2ccccc2)CC(C)O1 (configuration not stated) | 16% | -3%
COc1ccc(CN2CCC(=O)NC2=O)cc1 | 9% | -20%
O=C(c1ccccc1)N1CCN(S(=O)(=O)N2CCOCC2)CC1 | 0% | 2%
O=C(COC(=O)c1cncc(Br)c1)NCC1CCCO1 (configuration not stated) | -4% | -6%
COCCN(C(=S)Nc1cccc(OC)c1)C1CCN(C(C)C)CC1 | -1% | -16%
CC(C)NC(=O)C(=O)N/N=C/c1ccco1 | -2% | 10%
CCCc1nc2ccccc2n1CCOC | 7% | -24%
COc1ccc(NC(=O)Nc2ccc(N3CCCC3=O)cc2)cc1OC | -21% | -12%
CC1=C(C(=O)OCc2ccccc2)C(c2ccccc2Cl)NC(=O)N1CCCCCC(=O)O (configuration not stated) | -14% | 1%
CC(Sc1nnc(N)s1)C(=O)Nc1nccs1 (configuration not stated) | -15% | 12%
CC(=O)NNc1ccc(C(F)(F)F)cc1[N+](=O)[O-] | -7% | -5%
COCCNCC(=O)C12CC3CC(CC(C3)C1)C2 | -20% | -23%
Cc1ccccc1Oc1cccc(C(=O)/C(C#N)=C/N(C)C)c1 | 3% | -25%
Cc1cc(C)nc(NC(=O)c2ccc(Cl)c(Cl)c2)n1 | -1% | -13%

Quoted at random: 2 entries already listed.
SMILES | DT40 TDP1 CPT | DT40 TDP1 no CPT
Cc1cc(C)nc(NC(=O)c2ccc(Cl)c(Cl)c2)n1 | -1% | -13%
CC1=C(C(=O)OCc2ccccc2)C(c2ccccc2Cl)NC(=O)N1CCCCCC(=O)O (configuration not stated) | -14% | 1%

Additional compounds:
SMILES | DT40 TDP1 CPT | DT40 TDP1 no CPT
O=C(O)c1ccc(C(=O)c2ccc3c(c2)C(=O)N(CCO)C3=O)cc1 | 2% | -12%
CCCc1ccc(-c2c(C)sc(N)c2C#N)cc1 | -20% | -17%
O=[N+]([O-])c1ccc(OCC(O)CN(CCO)CCO)cc1 (configuration not stated) | -13% | 19%
Cc1ccc(C2/C(=C(\O)c3cnn(-c4ccccc4)c3C)C(=O)C(=O)N2CCN(C)C)o1 (configuration not stated) | -15% | 3%
CC1CC1C(=O)OCC(=O)N(C)CC(=O)Nc1ccc(F)cc1 (configuration not stated) | 4% | 2%
CCOC(=O)CSC1=C(C#N)C(c2ccco2)C(C(=O)Nc2cccc(C(F)(F)F)c2)=C(C)N1 (configuration not stated) | 1% | -13%
O=C(Cn1nnc(-c2ccccc2)n1)NCc1ccco1 | -2% | -9%
O=C1C(=O)N(CCN2CCOCC2)C(c2cccnc2)/C1=C(/O)c1ccc(Cl)cc1 (configuration not stated) | 15% | 24%
CC(C)[C@H](NC(=O)c1ccccc1F)C(=O)NCc1ccc(S(N)(=O)=O)cc1 | 1% | -2%
COc1ccc(NC(=O)Cc2c(F)cccc2Cl)c(OC)c1 | ? | -30%
COc1ccc(S(=O)(=O)NC(C)C(=O)NCc2cccnc2)cc1OC (configuration not stated) | 9% | -4%
COc1cc(N)c(Cl)cc1NC(=O)c1ccccc1 | -8% | -17%
O=C(C1CCCCN1S(=O)(=O)c1ccccc1[N+](=O)[O-])N1CCCC1 (configuration not stated) | 2% | ?
Cc1cc(N2CC34C=CC(O3)C(C(=O)O)C4C2=O)no1 (configuration not stated) | -1% | ?
CCNc1nc(NCC)n2c(SCC(=O)Nc3c(C)cccc3C)nnc2n1 | -5% | -3%
Cc1c(NC(=O)c2cccs2)cccc1[N+](=O)[O-] | 15% | -7%
Cc1nn(S(=O)(=O)N2CCCCC2)c(C)c1Br | ? | -17%
COc1ccc(CN2C(=O)CN=C2Nc2cccc(C)c2C)cc1 | -26% | 0%
Cc1ccc(C(=O)OCC(=O)c2c(N)n(C)c(=O)n(C)c2=O)cc1S(=O)(=O)N1CCCCC1 | -17% | -4%
CCn1nc(CC(=O)Nc2nnc(CC(=O)N3CCCCC3)s2)c2ccccc2c1=O | -6% | 2%
NS(=O)(=O)c1ccc(NN=C2CCCCC2)c([N+](=O)[O-])c1 | -5% | -28%
Cn1c(SCC(=O)Nc2ccc(Br)cc2)nc(O)cc1=O | -3% | -16%
CNC(=O)Cn1nc(C)c2ccccc2c1=O | -2% | -3%
CCOc1ccc(/C(O)=C2/C(=O)C(=O)N(CCOCCO)C2c2cccnc2)cc1 (configuration not stated) | 10% | 8%
O=C(C1CC(=O)N(c2ccccc2)C1)N1CCC(c2nc3ccccc3[nH]2)CC1 (configuration not stated) | -23% | -15%
The list continues:
SMILES | DT40 TDP1 CPT | DT40 TDP1 no CPT
NC(=O)C1=C[C@@H](c2csc3ccccc23)C[C@@H](OCc2ccc(CO)cc2)O1 | 26µM* | ?
O=C(Nc1nnc(-c2ccc(F)cc2)s1)c1ccco1 | 8% | -4%
Cc1cccn2cc(CCNS(=O)(=O)c3ccc([N+](=O)[O-])cc3)nc12 | -5% | -1%
O=C(CCS(=O)(=O)Cc1ccccc1)N1CCN(Cc2ccccc2)CC1 | 0% | -9%
CCC(=O)N1N=C(c2ccccc2)CC1c1ccc([N+](=O)[O-])cc1 (configuration not stated) | 9% | -19%
Cn1c(SCCN2CCCCC2)nnc1-c1ccccc1Br | -8% | 0%
CC(=O)c1ccc(NC(=O)CSc2nnc(-c3ccncc3)n2C2CC2)cc1 | -18% | -18%
CSCCC(NS(=O)(=O)c1cccs1)C(=O)NCc1ccccc1 (configuration not stated) | -12% | ?
CCCCCN1CC(O)=C(c2ccccc2)C1=N | 0% | -24%

Laid out differently: entries from further up.
CCC(=O)N1N=C(c2ccccc2)CC1c1ccc([N+](=O)[O-])cc1 (configuration not stated)
  DT40 TDP1 CPT = 9%; DT40 TDP1 no CPT = -19%

Cn1c(SCCN2CCCCC2)nnc1-c1ccccc1Br
  DT40 TDP1 CPT = -8%; DT40 TDP1 no CPT = 0%

CC(=O)c1ccc(NC(=O)CSc2nnc(-c3ccncc3)n2C2CC2)cc1
  DT40 TDP1 CPT = -18%; DT40 TDP1 no CPT = -18%

Complete entries, quoted from the list:
Record of CSCCC(NS(=O)(=O)c1cccs1)C(=O)NCc1ccccc1 (configuration not stated) → DT40 TDP1 CPT: -12%; DT40 TDP1 no CPT: ?
Record of CCC(=O)N1N=C(c2ccccc2)CC1c1ccc([N+](=O)[O-])cc1 (configuration not stated) → DT40 TDP1 CPT: 9%; DT40 TDP1 no CPT: -19%

The list is partial, and most or all hits are left out here.
